Screening data (PubChem BioAssay)
Rango dissoc inh: qHTS Assay for Inhibitors of RanGTP induced Rango (Ran-regulated importin-beta cargo) - Importin beta complex dissociation | Potency, µM (series often up to 46.1 µM), for the others: top-dose activity change, negative = inhibition | 0.071% of 340,000 active | Snurportin-1 (Homo sapiens) + GTP-binding nuclear protein Ran (Homo sapiens) + Importin … | Biochemical FRET Rango-importin beta, RanGTP-induced dissociation; active means falling FRET ratio curve, often poorly fitted, with flat reads before Ran was added; inconclusive means other falling curves, or compound fluorescence or quenching; inactive means flat or rising ratio curve;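 also: potency is read from the fitted curve at half-maximal effect; % of control where 0% means no effect; nearly all actives have a fitted effect of over 45% in size; -100% = wells without RanGTP and RCC1; the record marks most hits as doubtful in a second field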
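Compounds preincubate 5 min with complex of recombinant Rango and importin beta in PBS with 1 mM DTT. Ran (0.6 uM) loaded with 2 mM GTP plus 0.2 uM RCC1 starts dissociation; FRET is recorded 45 min later.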
GLA inh pH 4.5: qHTS Assay for Inhibitors of Human alpha-Galactosidase at pH 4.5. activity change, negative = inhibition, % at 105 µM. Alpha-galactosidase A (Homo sapiens), P06280. 230,000 tested, under 10 active. purified enzyme, 4-MU-alpha-Gal fluorescence, pH 4.5; inconclusive = small, poorly fitted or top-dose-only inhibition, or a rising curve; inactive = flat fitted curve, though single readings scatter; no compound was filed as active;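 also: 0% = full activity with enzyme and -100% = basal without enzyme; dose as in the result columns while the protocol names 77 µM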
miR-21 reporter: qHTS Assay for Modulators of miRNAs and/orActivators of miR-21; HeLa miR-21 FLuc reporter, luciferase, 48 h; Potency, µM (titrated, usually from 38.3 µM), inactives show at the top dose reporter change, positive = more light; 340,000 tested, under 10 active; AID 2288, 2010; active = well fitted rising curve with a large enough effect; inconclusive = small, poorly fitted or top-dose-only effect; inactive = no such curve, though single readings can be large or run the other way;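 also: % of control where 0% means no effect; miR-21 action dims this reporter so a rising signal means less miR-21 action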
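HeLa miR-21-FLuc reporter line, endogenous miR-21; 2000 cells/well in DMEM/10% FBS; compound titration up to ~40uM final, 48 h, 37 degree Celsius; luciferase detection reagent, 15 min lysis, CCD luminescence.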
Rango-impB inh: qHTS Assay for Inhibitors of Rango (Ran-regulated importin-beta cargo) - Importin beta complex formation | Importin subunit beta-1 (Homo sapiens), Q14974 | 0.031% of 340,000 active | Potency, µM (series often up to 92.2 µM), inactives show top-dose inhibition of complex formation | Rango CFP/YFP FRET sensor + importin beta, 45 min; active = rising FRET ratio curve, often small or poorly fitted; inconclusive = mostly compound fluorescence or quenching in the first reads; inactive = flat curves in all reads;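 also: potency is read from the fitted curve at half-maximal effect; 0% = DMSO wells and 100% = buffer wells lacking importin beta; nearly all actives have a fitted effect of over 15% in size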
Target sequence (Q14974 whole entry, looked up): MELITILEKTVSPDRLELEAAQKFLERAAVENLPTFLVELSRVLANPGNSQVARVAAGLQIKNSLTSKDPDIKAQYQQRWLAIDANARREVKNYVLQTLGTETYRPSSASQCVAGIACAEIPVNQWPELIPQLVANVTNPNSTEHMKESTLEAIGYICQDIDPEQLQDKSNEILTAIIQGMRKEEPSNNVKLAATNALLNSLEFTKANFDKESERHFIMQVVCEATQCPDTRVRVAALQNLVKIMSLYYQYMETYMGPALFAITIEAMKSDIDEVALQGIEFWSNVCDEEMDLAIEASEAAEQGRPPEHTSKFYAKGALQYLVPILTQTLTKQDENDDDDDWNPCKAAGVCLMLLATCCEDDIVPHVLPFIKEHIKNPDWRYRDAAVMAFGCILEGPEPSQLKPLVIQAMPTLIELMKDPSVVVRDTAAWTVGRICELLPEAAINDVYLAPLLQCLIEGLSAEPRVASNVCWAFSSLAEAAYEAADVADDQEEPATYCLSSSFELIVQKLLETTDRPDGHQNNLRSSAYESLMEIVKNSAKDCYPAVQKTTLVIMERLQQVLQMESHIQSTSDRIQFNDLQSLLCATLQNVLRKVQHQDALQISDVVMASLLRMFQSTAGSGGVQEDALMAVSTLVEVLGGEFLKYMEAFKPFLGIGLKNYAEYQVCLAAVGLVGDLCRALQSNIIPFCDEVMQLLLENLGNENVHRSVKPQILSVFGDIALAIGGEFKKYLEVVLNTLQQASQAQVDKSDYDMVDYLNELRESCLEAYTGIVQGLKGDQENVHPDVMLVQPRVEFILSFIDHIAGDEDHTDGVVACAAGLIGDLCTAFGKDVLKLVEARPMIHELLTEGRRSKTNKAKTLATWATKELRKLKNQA
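Inhibition scored from the CFP 486 nm/YFP 530 nm FRET ratio 45 min after adding 0.125 microM importin beta to 50 nM Rango biosensor preincubated 5 min with compound (room temperature, PBS with DTT, Tween-20, BSA). No-importin wells as positive control.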
An asterisk follows results filed as active; u = inconclusive; x = not tested or not shown. A portion of the library; count on the stated rates, not on these rows.

SMILES	Rango dissoc inh	GLA inh pH 4.5	miR-21 reporter	Rango-impB inh
CCOC(=O)c1csc(COc2ccccc2Cl)n1	2.7%	1.8	-19.9%	-2.1%
O=C(NC(=S)Nc1ccc(N2CCCCC2)cc1)c1cccs1	-8.3%	2.3	-42.7%	6.7%
COC(=O)c1ccc2c(=O)[nH]c(COC(=O)c3cccc(S(=O)(=O)N4CCOCC4)c3)nc2c1	-0.1%	x	x	-3.8%
Cc1nnc(NC(=O)c2ccc3c(c2)C(=O)N(CC2CCCO2)C3=O)s1 (stereo not given)	0.7%	2.9	-9.4%	1.3%
O=C(c1ccc(F)cc1)C1CCN(C(=O)N2CCOCC2)CC1	11.9%	3.3	3.3%	2.5%
CCn1nc(C(=O)OCC(=O)NC(C)C)c2ccccc2c1=O	15.1%	3.8	-0.6%	3.7%
CC(NC(=O)C1CCCN(S(=O)(=O)c2cnc[nH]2)C1)c1ccccc1 (stereo not given)	13.6%	1.5	-1.1%	-5.8%
C#CCn1c(=NC(=O)c2ccc(Cl)s2)sc2cccc(OC)c21	5.9%	11.1	-13.1%	-4.5%
O=C(c1csc2c1CCCC2)N1CCN(c2ccccc2)CC1	-3.6%	-3.6	0.5%	-0.7%
Cc1ccc(S(=O)(=O)NCCC(=O)Nc2cccc(S(=O)(=O)N3CCCC3)c2)cc1C	2.7%	x	x	-1.3%
O=C(COC(=O)CNC(=O)C1CCCCC1)NCc1ccccc1	12.1%	x	x	-0.3%
COc1cccc(CNC(=O)COC(=O)C2CC3CCCC(C2)C3=O)c1 (stereo not given)	10.3%	x	x	4.3%
COc1ccc(-c2noc(N3CCC(C(=O)NC(C)c4ccccc4)CC3)n2)cc1 (stereo not given)	53.7%	x	18.2%	6.5%
COc1ccccc1OCCNC(=O)CCNS(=O)(=O)c1ccc(C)cc1	-10.9%	x	x	-2.5%
O=C(/C=C/c1ccco1)Nc1ccccn1	-1.0%	0.4	17.9%	0.5%
O=C(NC12CC3CC(CC(C3)C1)C2)c1cc([N+](=O)[O-])ccc1Cl	1.4%	x	1.0%	4.0%
COC(=O)c1ccccc1NC(=O)Nc1cc(C)cc(C)n1	14.4%	2.9	-7.4%	4.3%
O=C(c1ccccc1)N(c1ccccc1)C1C=CS(=O)(=O)C1 (stereo not given)	-4.9%	2.3	-2.4%	4.2%
Cc1ccc(CNC(=O)/C=C/c2c(Cl)cccc2Cl)cc1	1.9%	-6.7	-0.7%	2.1%
COCCn1nnnc1C(c1cccs1)N1CCN(c2nc3ccccc3s2)CC1 (stereo not given)	-12.5%	-5.5	8.8%	-1.1%
COc1cc(OC)c(C(=O)Nc2ccc(S(=O)(=O)Nc3ncccn3)cc2)cc1OC	-3.2%	-4.0	-16.6%	2.4%
O=C(COc1ccccc1)Nc1cccc(S(=O)(=O)N2CCCC2)c1	-3.9%	x	x	-1.8%
COc1cc(S(=O)(=O)N2CCCCC2)ccc1NC=O	-2.2%	7.7	2.3%	4.8%
COc1ccc(N2CCN(C(=O)c3ccc(F)cc3)CC2)c([N+](=O)[O-])c1	-11.0%	-3.0	-3.5%	-0.6%
CCN(Cc1ccc(Cl)s1)C(=O)c1cccc(OCc2c(C)noc2C)c1	2.1%	x	x	-0.7%
Clc1cccc(Nc2c3c(nc4ncnn24)CCC3)c1	-9.2%	3.3	-24.1%	4.4%
OCC[C@H]1C[C@H](O)[C@@H](O)[C@@]2(OCc3ccccc32)O1	1.0%	x	x	0.1%
COc1ccc(NC(=O)COC(=O)CCSc2ccccc2)cc1OC	24.2%	x	x	-1.4%
CC(C)c1c(C(=O)N/N=C/c2cccnc2)nnn1-c1nonc1N	-0.5%	x	-2.6%	2.8%
COc1ccc(C(=O)Nc2nc(C)c3cc4c(cc3n2)OCO4)cc1	-5.2%	7.4	-8.7%	-0.9%
CCCC[C@@H]1C=C(C(=O)O)[C@H](c2ccc3c(c2)OCO3)N1S(=O)(=O)c1ccc(C)cc1	16.8%	x	x	-3.6%
Cc1cccc(C)c1NC(=O)C(c1cccc([N+](=O)[O-])c1)N(C)C(=O)c1ccccn1 (stereo not given)	-12.1%	-3.1	3.9%	u
COC(=O)c1cn(NC(=O)c2ccncc2)c(=O)c2ccccc12	-0.1%	7.7	-1.1%	6.3%
COc1ccc(/C(O)=C/c2nc3ccc(C(=O)NCCc4cccc(C)c4)cc3[nH]c2=O)cc1OC	u	-1.5	-8.1%	-3.8%
COC(=O)c1cc(C)sc1NC(=S)N1CCN(CCc2ccccc2)CC1	-8.9%	-2.8	-1.0%	-1.4%
O=C(NC1CCCCC1)C1CCN(c2nnnn2-c2ccccc2)CC1	2.7%	-0.8	-2.7%	-2.3%
CCOc1ccc2cc(C3CC(c4ccco4)=NN3S(C)(=O)=O)c(=O)[nH]c2c1 (stereo not given)	u	-2.7	-4.0%	u
Cc1sc(NC(=O)c2ccc3ncsc3c2)c(C(N)=O)c1C	u	x	x	u
COC(=O)/C(C#N)=C(/Nc1ccc(F)c(Cl)c1)C(F)(F)F	23.1%	1.2	0.8%	-1.7%
C=CCn1c(=O)/c(=C/c2ccc(F)cc2)s/c1=C(\C#N)c1nnc2n1CCCCC2	-4.9%	5.9	1.6%	-5.2%
COc1ccc(S(=O)(=O)N2CCOCC2)cc1NC(=O)c1ccc(OC(F)F)cc1	-7.9%	x	x	0.8%
Cc1occc1C(=O)NNS(=O)(=O)c1ccc(Cl)cc1	-1.2%	6.4	-0.1%	-0.5%
CCC(NC(=O)c1cc(COc2ccc(C)nc2)on1)c1ccc(C)cc1 (stereo not given)	2.0%	x	2.1%	2.0%
CSc1ccc(CN2CCN(CC=C(C)C)C(CCO)C2)cc1 (stereo not given)	0.7%	3.1	-1.6%	0.4%
Cc1ccc(C)c(N(CC(=O)NC2CCCC2)C(=O)CCC(=O)Nc2nccs2)c1	24.8%	x	10.8%	4.0%
COc1ccccc1-c1ocnc1C(=O)Nc1ccc(N2CCOCC2)cc1N1CCOCC1	7.7%	x	0.9%	1.1%
CCN(CCCNC(=O)CCn1c(=O)[nH]c2ccccc2c1=O)c1ccccc1	1.7%	-13.4	-3.8%	5.6%
COc1cccc(C(=O)N(C)CC(=O)Nc2cccc3ccccc23)c1	-27.5%	x	x	-1.7%
COc1ccc(CC2(CO)CCN(Cc3ccncc3)CC2)cc1	1.0%	9.4	0.0%	-1.5%
O=C(Cc1ccccc1F)NNC(=O)c1cccs1	16.9%	x	x	-3.8%
C=CCn1c(COc2cccc(C)c2C)nnc1SCC(=O)N1CCN(c2ccccc2)CC1	4.0%	-4.3	27.9%	-3.7%
COc1ccc(N2CCN(Cc3nc(-c4ccc(Cl)cc4Cl)no3)CC2)cc1	-10.3%	-9.1	-1.6%	0.9%
CC(C(=O)Nc1ccc(F)c(F)c1F)N(C)CC(=O)Nc1ccccc1Br (stereo not given)	-0.6%	2.7	-10.1%	-2.5%
O=C(CP(=O)(c1ccccc1)c1ccccc1)Nc1nc2ccc(Cl)cc2s1	16.1%	0.3	3.5%	1.0%
CCCC(=O)NC(=S)Nc1ccccc1N1CCOCC1	-0.8%	-4.5	-1.0%	3.2%
CCOC(=O)C1CCN(C(=O)c2ccc3c(=O)n4c(nc3c2)CCCCC4)CC1	5.2%	x	x	-3.4%
CCN1CCN(c2ccc(NC(=O)c3cc(S(=O)(=O)N4CCCC4)ccc3Cl)cc2)CC1	0.4%	x	x	-1.2%
CC(C)(C)c1ccccc1OCCOCCNCc1ccccc1	6.7%	-3.6	1.6%	-0.2%
COc1ccccc1C(=O)Nc1ccnn1C1CCN(CC2CC=CCC2)CC1 (stereo not given)	1.7%	x	1.4%	-2.2%
O=S(=O)(Nc1cccc(-c2ccc3nncn3n2)c1)c1ccc(Cl)s1	11.8%	-10.3	-12.1%	6.8%
Following part
SMILES	Rango dissoc inh	GLA inh pH 4.5	miR-21 reporter	Rango-impB inh
O=c1c2ccc(Cl)cc2[nH]c(=S)n1Cc1cccnc1	-3.5%	-5.9	-4.2%	0.0%
CC(C(=O)N1CCN(C=O)CC1)N1C(=O)c2ccccc2C1=O (stereo not given)	-10.3%	6.3	-8.6%	4.5%
Cc1cc(=O)oc2cc(NC(=O)c3cc([N+](=O)[O-])ccc3N3CCOCC3)ccc12	-17.6%	12.3	-18.3%	u
C=CCNC(=O)Nc1ccc(OCC)cc1	18.7%	-9.9	-19.4%	4.9%
CC(=O)N1c2ccc(Cl)cc2C2OCCC2C1c1ccco1 (stereo not given)	-7.6%	0.0	0.9%	-1.3%
COC(=O)c1cc(Cn2nc(C(=O)O)c3ccccc3c2=O)oc1C	-1.0%	x	-5.4%	1.8%
COc1ccc(NC(=O)Nc2cnccn2)c(OC)c1	-6.7%	x	-19.4%	5.4%
O=C(NC1CCN(Cc2ccccc2)CC1)C1CCCN(c2nnc(-n3cccc3)s2)C1 (stereo not given)	0.0%	1.4	4.2%	-0.5%
Cc1onc(C(=O)N2CCN(c3ccccc3F)CC2)c1-c1ccccc1Cl	2.4%	2.1	19.8%	0.6%
Cc1cc(NC(=O)c2cc(-c3ccc(OC(C)C)cc3)nc3ccccc23)no1	-1.8%	x	-13.3%	0.7%
COc1ccc(/C=N/NC(=O)c2ccco2)cc1COc1ccc(F)cc1	-14.1%	x	-3.0%	9.5%
O=C(NCc1ccc(F)cc1)c1ccc(S(=O)(=O)Nc2cccc(C(F)(F)F)c2)cc1	-5.0%	-1.6	10.3%	0.6%
CCSc1cc(C2C(C#N)=C(N)OC(C)=C2C(=O)OC)c(C)o1 (stereo not given)	-26.4%	-6.9	-0.4%	u
COc1ccc(/C=C/C(=O)OCC(=O)Nc2cc(C(N)=O)cc(C(N)=O)c2)cc1	-11.7%	4.9	-2.4%	0.1%
Cc1ccc(CNC(=O)C2CCC(=O)N(CCc3ccccc3)C2)s1 (stereo not given)	-5.3%	x	-16.1%	6.1%
Clc1cccc(OCc2nc(-c3ccncc3)no2)c1	0.3%	-6.1	-39.7%	2.7%
O=S(=O)(Nc1nc2ccccc2nc1Nc1cccc(S(=O)(=O)N2CCCCC2)c1)c1ccccc1	-15.1%	1.5	17.5%	u
O=c1c2c(-c3ccc([N+](=O)[O-])cc3)ccnc2[nH]n1-c1ccccc1	u	x	-4.7%	-0.1%
CCCCOC(=O)c1ccc(NC(=O)C(=O)NCc2ccncc2)cc1	-1.9%	-1.6	17.7%	0.4%
CCN1CCN(CC(=O)Nc2sc3c(c2C#N)CCC3)CC1	2.4%	4.3	-3.7%	-3.1%
N#Cc1cccc(CN2CCC(=O)N([C@H](CO)c3ccccc3)CC2)c1	-18.3%	x	1.8%	-5.3%
O=C(NNC1CC(=O)N(c2ccc(Cl)cc2)C1=O)c1ccccc1Cl (stereo not given)	-1.7%	5.2	-2.7%	-1.6%
O=C(c1cc(-c2ccccc2Cl)nc2ccccc12)N1CCN(c2ccccn2)CC1	1.3%	x	x	-1.0%
COc1cc(/C=N/Nc2nc3ccccc3s2)cc([N+](=O)[O-])c1O	-10.6%	-8.8	-21.0%	u

Entries above that have a CF3 group:
SMILES	Rango dissoc inh	GLA inh pH 4.5	miR-21 reporter	Rango-impB inh
COC(=O)/C(C#N)=C(/Nc1ccc(F)c(Cl)c1)C(F)(F)F	23.1%	1.2	0.8%	-1.7%
O=C(NCc1ccc(F)cc1)c1ccc(S(=O)(=O)Nc2cccc(C(F)(F)F)c2)cc1	-5.0%	-1.6	10.3%	0.6%

Other structures follow.
SMILES	Rango dissoc inh	GLA inh pH 4.5	miR-21 reporter	Rango-impB inh
Cc1cccc(CCNS(=O)(=O)c2ccc3c(c2)CCN3C(=O)CCC(=O)O)c1	-1.7%	x	-0.2%	7.8%
Cn1c(=O)cc(OCC(=O)Nc2ccccn2)c2ccccc21	-6.9%	6.0	-5.4%	0.6%
CCN(CC)c1ccc(N2C(=O)/C(=C\c3cccs3)SC2=S)cc1	1.0%	1.6	-0.1%	5.6%
c1ccc(CN2CCC3(CCCc4ccccc43)CC2)cc1	4.6%	-2.5	x	-3.3%
